WNV NS2B-NS3 inh: inhibitors of WNV NS2B-NS3 protease, primary screen, biochemical, fluorogenic substrate. fluorogenic substrate Ex360/Em465; hits give low values. z-score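 (tested at a level between 10 and 100 µM)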. Genome polyprotein (West Nile virus), P06935. actives 0.18% (n = 65,000);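 active = z-score at -3 or under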;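 note: score is relative to mean and spread of the compound wells of a plate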
Target sequence (P06935 1371-1501 limits assumed): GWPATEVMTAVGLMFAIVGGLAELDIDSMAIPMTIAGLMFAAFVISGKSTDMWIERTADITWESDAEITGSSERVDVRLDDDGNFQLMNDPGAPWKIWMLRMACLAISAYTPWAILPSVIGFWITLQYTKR
Target sequence (P06935 1502-1679 limits assumed): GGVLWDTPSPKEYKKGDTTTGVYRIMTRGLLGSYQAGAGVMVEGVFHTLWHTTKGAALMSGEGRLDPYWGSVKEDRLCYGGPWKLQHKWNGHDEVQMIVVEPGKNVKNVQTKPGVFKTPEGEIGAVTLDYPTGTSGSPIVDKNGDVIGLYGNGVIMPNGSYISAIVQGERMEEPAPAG
MT1-MMP promoter: inhibitors of MT1-MMP promoter transcription, cell-based, luciferase reporter, luminescence (AID 618); MT1-MMP promoter luciferase reporter cells, luminescence; calls from a first round at 10 µM; hits with a dose series show EC50 in µM; actives 0.62% (n = 87,000);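 active = over half of the reporter light lost at 10 µM or EC50 under 50 µM; inactive = the rest and hits that failed the dose series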;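 note: actives suppress MT1-MMP promoter-driven transcription so potencies describe inhibitors; HT1080 fibrosarcoma cells; overnight exposure; toxic or luciferase-blocking compounds were not removed from the actives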
Hsc70 ATP site: Hsc70 inhibitors, probe displacement, primary screen, biochemical, fluorescence polarization (AID 568); Hsc70 fluorescence polarization, probe displacement; higher % means a stronger effect; strong numbers were not always called active; displacement, % at 20 µM, or IC50 in µM where a hit was titrated; 83,000 tested, under 10 active;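 active = displacement above 50% without optical interference and an IC50 on retest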;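 note: ATPase domain with a fluorescein-tagged ATP probe; 0% = vehicle and 100% = excess ADP; read after one hour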
The depositor's hits bear a star; i = inactive; nt = no result given; + = active, no number. The list is partial (hit frequency here may not be typical).

SMILES	WNV NS2B-NS3 inh	MT1-MMP promoter	Hsc70 ATP site
CCOn1c(SCC)nc2ccccc2c1=O	nt	i	0.5%
COc1cc(OC)cc(-c2nnc(SCc3cccc(C(=O)O)c3)o2)c1	nt	i	-0.4%
CCC(C)NC(=O)Cn1nc(C(F)(F)F)c2c1CCCC2 (stereo unspecified)	nt	i	2.3%
CC(C)Oc1ccc(C(CC(=O)O)NC(=O)c2cccs2)cc1 (stereo unspecified)	nt	i	4.4%
CCS(=O)(=O)Nc1cccc(C(=O)CC2(O)C(=O)Nc3ccccc32)c1 (stereo unspecified)	0.37	i	-5.6%
O=C1CC(c2cccs2)c2cc3c(cc2N1)OCO3 (stereo unspecified)	-1.55	i	1.6%
O=c1[nH]c(Nc2nc3ccccc3o2)nc2c1CCCC2	2.32	i	2.0%
O=C(CN1C(=O)CSC1=O)Nc1ccc(F)c(F)c1F	0.07	i	0.9%
Cc1ccc2c(c1)C(O)(c1c(C)[nH]c3ccccc13)C(=O)N2 (stereo unspecified)	0.89	i	4.4%
Cc1ccccc1Cn1nnc(-c2ccc3c(c2)OCO3)n1	nt	i	-3.4%
CCOc1ccc(N2C(=O)c3cccnc3C2Nc2ccc(Cl)cc2)cc1 (stereo unspecified)	0.13	i	-5.9%
COc1cc2ccccc2cc1C(=O)N1CCN(C)CC1	0.95	i	6.1%
COC(=O)c1ccccc1NC(=O)Cn1ccnc1	-0.19	i	-3.8%
CCOC(=O)N1CCN(C(=O)c2ccc3nc4ccsc4c(=O)n3c2)CC1	0.85	i	-2.8%
COc1nc(NC(C)(C)C)nc(Oc2ccc(=O)n(C)n2)n1	-1.92	i	4.7%
O=S(=O)(NCCSc1ccc(Cl)cc1)c1ccc2c(c1)OCCO2	0.63	i	-1.0%
O=C(c1cccs1)N1CCN(S(=O)(=O)N2CCCCC2)CC1	-0.47	i	7.3%
CCCN1C(=O)C2C(C(=O)Nc3cccc(OC)c3)C3C=CC2(O3)C1C(=O)NC1CCCCC1 (stereo unspecified)	0.12	i	-0.6%
CCOCCCNC(=O)c1cc(C)nn1-c1ccccc1	0.06	i	4.9%
Cc1ccc(NC(=O)CSc2nnc(-c3ccc(S(=O)(=O)N4CCCC4)cc3)o2)cc1C	0.42	i	2.0%

2 of the compounds above, field by field:
molecule: COC(=O)c1ccccc1NC(=O)Cn1ccnc1
  WNV NS2B-NS3 inh: -0.19
  MT1-MMP promoter: i
  Hsc70 ATP site: -3.8%
molecule: COc1cc2ccccc2cc1C(=O)N1CCN(C)CC1
  WNV NS2B-NS3 inh: 0.95
  MT1-MMP promoter: i
  Hsc70 ATP site: 6.1%

Later entries.
SMILES	WNV NS2B-NS3 inh	MT1-MMP promoter	Hsc70 ATP site
COc1cc(S(=O)(=O)N2CCC(C(N)=O)CC2)c(C)cc1C	0.08	i	3.9%
COCCOC(=O)C1=C(C)OC(N)=C(C#N)C1c1ccc2c(c1)OCO2 (stereo unspecified)	-0.44	i	-4.6%
COc1ccc(S(=O)(=O)N2CCN(C(=O)NC3CCCCC3)CC2)cc1OC	-0.43	i	-2.7%
COc1c(C(=O)Nc2c(C)n(C)n(-c3ccccc3)c2=O)ccc2ccccc12	-0.47	i	2.2%
Cc1cc(C)nc(N2C(=O)CC(Cc3ccccc3)C2=O)n1 (stereo unspecified)	0.76	i	1.0%
O=C(CCN1CCCCC1)Nc1cccc(Cl)c1	-0.35	i	-6.7%
CCCOc1ccc(/C(O)=C2/C(=O)C(=O)N(CCCOC)C2c2ccncc2)cc1 (stereo unspecified)	-0.17	i	1.9%
CCCc1cc(=O)[nH]c(SCC(=O)c2cc(C)n(CCC)c2C)n1	nt	i	-1.7%
CC1CC(C)CN(c2oc(-c3ccco3)nc2C#N)C1 (stereo unspecified)	0.43	i	2.8%
Clc1ccsc1-c1csc(-c2cccnc2)n1	nt	i	2.2%
CCc1nnc(NC(=O)c2ccc3c(c2)C(=O)N(CC(C)C)C3=O)s1	nt	i	4.6%
CCn1c(SCC(=O)Nc2ccccc2)nnc1C1CCCCC1	nt	i	0.8%
O=C1C(C=NCc2ccco2)=C(O)c2ccccc21	-1.02	i	3.7%
COCCNC(=O)C(=O)Nc1cccc(Br)c1	nt	i	-1.1%
O=C(CSc1nnnn1C1CCCCC1)N1CCc2ccccc21	-0.03	i	-6.0%
Cn1cccc1C1NC(=O)c2c(sc3c2CCC(C(C)(C)C)C3)N1 (stereo unspecified)	0.44	i	-0.6%
CC1=C(C(=O)Nc2ccccc2C)C(c2ccc(C)o2)N2C(=O)CSC2=N1 (stereo unspecified)	-0.12	i	-4.0%
O=C(Nc1nnc(-c2ccco2)s1)C1CCN(S(=O)(=O)c2ccc(Cl)cc2)CC1	0.92	i	3.1%
COc1ccccc1C1(O)CCN(CC(=O)Nc2c(C)nn(C)c2C)CC1	-0.88	i	-4.9%
COc1cccc2c1OC1(C)CC2NC(=O)N1Cc1ccccc1 (stereo unspecified)	nt	i	3.5%
COc1ccc(O)c(CN2CCN(C/C=C/c3ccccc3)CC2)c1	-0.56	i	-1.6%
Cn1cc(C(=O)NCC2COc3ccccc3O2)c(=O)c2cc(S(=O)(=O)N3CCCCC3)ccc21 (stereo unspecified)	nt	i	2.4%
COC(=O)C1CCN(C(=O)NC(C)(C)C)CC1	-0.37	i	1.9%
N#CC(C(=O)NCCc1ccccc1)c1nc2ccccc2nc1N1CCCCC1 (stereo unspecified)	-0.58	i	-58.2%
O=C(NCC1c2ccccc2CCN1C(=O)CN1CCOCC1)C1CCCCC1 (stereo unspecified)	-0.63	i	-0.5%
COc1ccc2c(c1OC)C(=O)N(c1cccc(C)c1)C2=O	0.41	i	0.4%
CC(=O)Oc1cccc(N2C(=O)C3C(C2=O)C2C=CC3C23CC3)c1 (stereo unspecified)	-0.8	i	1.8%
COc1ccc(C(=O)Nc2nncs2)cc1S(=O)(=O)N1CC(c2ccccc2)CC1=O (stereo unspecified)	0.4	i	0.5%
CC(=O)Nc1c(C(=O)O)[nH]c2ccccc12	-0.21	i	0.7%
Oc1c(C(Nc2nc3ccccc3s2)c2ccco2)ccc2cccnc12 (stereo unspecified)	3.8	i	-8.7%
CCOC(=O)c1ccc(NC(=O)CSc2nnc(COc3ccccc3OC)n2CC)cc1	0.35	i	-4.8%
Cc1cc(C)c2nc(SCC(=O)N3CCCCC3)c(C#N)cc2c1	-0.28	i	2.1%
COc1cc2c(C(=O)NCCCOC(C)C)cn(CC(C)C)c(=O)c2cc1OC	-0.05	i	12.5%
COc1cccc(C=Nc2ccc3c(c2)OCCO3)c1O	0.39	i	1.6%
Cc1ccc(-c2c(C#N)c(N)nc3c2CCCCC3)o1	-1.4	i	2.0%
COCCOC(=O)CC1=NC(=O)CS1	-0.47	i	1.2%
CC(C)CC(c1nnnn1Cc1ccco1)N1CCN(C2CCCC2)CC1 (stereo unspecified)	1.73	i	0.2%
COc1ccc(-c2ccc(C#N)c(SCC(=O)OCc3ccccc3)n2)cc1OC	nt	i	-0.8%
CCC(C)(C)n1nnnc1C(c1cccs1)N1CCN(c2nc3ccccc3s2)CC1 (stereo unspecified)	1.37	i	-7.2%
O=C(NCc1ccc(F)cc1)c1cc2n(n1)C(C(F)(F)F)CC(C1CC1)N2 (stereo unspecified)	-1.19	i	-0.1%
COC(=O)CSc1nnc(Cc2ccccc2)n1-c1ccc(C)cc1	nt	i	3.6%
COc1ccc(CN2CC34C=CC(O3)C(C(=O)O)C4C2=O)cc1 (stereo unspecified)	-0.38	i	2.3%
O=C(c1ccco1)N1CCN(C(=O)N2c3ccccc3Sc3ccccc32)CC1	0.23	+	-0.1%
Cc1ccc(C)c(N2CCN(C(=O)c3ccccc3Br)CC2)c1	-0.26	i	2.1%
COc1ccc(C2=NOC(C(=O)N3CCCc4ccccc43)C2)cc1 (stereo unspecified)	-0.24	i	1.9%
CC(=O)Oc1ccc(N2C(=O)CCC2=O)cc1	2.62	i	6.7%
CCOc1ccc(CCNC(=O)CCN2C(=O)COc3ccccc32)cc1OCC	-1.65	i	-5.0%
CC(=O)NC(c1ccccc1)c1cccnc1 (stereo unspecified)	-0.65	i	-0.2%
CCOC(=O)Nc1ccc2c(c1)N(C(=O)CN1CCN3CCCC3C1)c1ccccc1CC2 (stereo unspecified)	-0.66	i	3.9%
c1ccc(Nc2ccccn2)cc1	nt	i	-1.2%

Next results
SMILES	WNV NS2B-NS3 inh	MT1-MMP promoter	Hsc70 ATP site
CCCCNC(=O)Nc1cc(C(F)(F)F)c[nH]c1=O	-0.05	i	6.2%
COc1cccc(C(CC(=O)NCc2ccco2)NS(=O)(=O)c2ccc(C)cc2)c1OC (stereo unspecified)	-0.62	i	1.2%
COc1ccccc1-c1cc(C(F)(F)F)nc(NCc2ccco2)n1	0.09	i	-2.3%
O=C(C(Cc1ccccc1)n1cccc1)N1CCN(C2CCCCC2)CC1 (stereo unspecified)	-0.87	i	-0.3%
COc1cccc(C2CC(c3ccccc3OC)n3nc(N)nc3N2)c1 (stereo unspecified)	0.81	i	7.8%
COC(=O)C(NS(C)(=O)=O)(c1c(C)[nH]c2ccccc12)C(F)(F)F (stereo unspecified)	0.25	i	-0.3%
COC(=O)c1[nH]c2ccccc2c1NC(=O)CN1CCC(C(N)=O)(N2CCCCC2)CC1	0.58	i	-1.2%
C/C(Cl)=C/Cn1c(=O)c2c(nc(Br)n2Cc2ccccc2)n(C)c1=O	0.35	i	1.4%
CC(=O)Cc1nsc(NC(=O)c2ccc(-c3cc(C(F)(F)F)ccc3Cl)o2)n1	-1.7	i	-8.8%
O=C(NC(CSCc1ccccc1)C(=O)N/N=C/c1ccc(O)cc1O)c1ccc([N+](=O)[O-])cc1 (stereo unspecified)	nt	i	-0.4%
CSc1nc2[nH]c3c(c2c2nncn12)CC(C)(C)OC3	-0.59	i	-9.8%
O=C(NCc1ccccc1)c1cc(-n2cnnc2)ccc1Cl	0.11	i	-1.3%
Cc1noc(C)c1CSc1nc2sc(C)c(C)c2c(=O)n1-c1ccccc1	0.42	i	0.0%
Cc1ccc(C(=O)N2CC(C)OC(C)C2)c(Cl)c1 (stereo unspecified)	nt	i	2.2%
CCC(C)NCCOc1ccc(Br)cc1 (stereo unspecified)	nt	i	-0.2%
CC(=O)Nc1ccc(-n2c(C)c(C(C)=O)c(C(C)=O)c2C)cc1	-0.3	i	-6.3%
O=C(CP(=O)(c1ccccc1)c1ccccc1)N1CCCCC1	0.36	i	2.9%
COc1ccccc1OC1=NS(=O)(=O)c2ccccc21	0.47	i	-1.9%
O=C(Oc1cccc(Oc2ccccc2)c1)N1CCOCC1	-0.96	i	-0.9%
COc1ccccc1N1CCN(Cc2nc3ccccc3c(=O)n2CC(C)=O)CC1	-1.26	i	5.0%
COc1ccc(-n2cnnc2SCC(=O)c2ccc(S(=O)(=O)N3CCOCC3)cc2)cc1	-0.33	i	3.2%
O=C1C=C(N2CCN(C3=CC(=O)CCC3)CC2)CCC1	1.59	i	2.1%
O=C(NCc1ccccc1Cl)C1CCN(S(=O)(=O)N2CCCCC2)CC1	-0.51	i	-1.5%
O=c1[nH]cnc2c1nc(SCc1ccccc1)n2C1OC(CO)C(O)C1O (stereo unspecified)	-0.31	i	3.4%
CCOC(=O)Cn1c(=O)oc2cc(S(=O)(=O)Nc3cc(OCC)ccc3OCC)ccc21	-0.25	i	0.3%
CCS(=O)(=O)n1nc(C(=O)N2CCOCC2)nc1N	-0.58	i	-3.1%
Cc1ccc(C(=O)c2coc3ccc(OCC(=O)O)cc23)cc1	-0.24	i	7.7%
Cc1cc2ccccc2c(=O)n1CC(=O)NCC(=O)N1CCN(c2cccc(Cl)c2)CC1	-0.24	i	-0.1%
COC(=O)C1CCN(C(=O)COC(=O)Cn2cnnn2)CC1	-1.1	i	5.2%
CCc1ccc(NC2=NC(C(=O)NC3CCCCC3)CC(=O)N2)cc1 (stereo unspecified)	1.32	i	4.2%
CCOC(=O)c1cc(C(=O)OCC)c2cc(Br)ccc2n1	0.28	i	0.1%
CCOC(=O)c1ccc(N2C(=O)CC(N(C)Cc3ccccc3)C2=O)cc1 (stereo unspecified)	nt	i	-0.7%

By substructure, the entries above with a Cl atom (eleven)
SMILES	WNV NS2B-NS3 inh	MT1-MMP promoter	Hsc70 ATP site
CCOc1ccc(N2C(=O)c3cccnc3C2Nc2ccc(Cl)cc2)cc1 (stereo unspecified)	0.13	i	-5.9%
O=S(=O)(NCCSc1ccc(Cl)cc1)c1ccc2c(c1)OCCO2	0.63	i	-1.0%
O=C(CCN1CCCCC1)Nc1cccc(Cl)c1	-0.35	i	-6.7%
Clc1ccsc1-c1csc(-c2cccnc2)n1	nt	i	2.2%
O=C(Nc1nnc(-c2ccco2)s1)C1CCN(S(=O)(=O)c2ccc(Cl)cc2)CC1	0.92	i	3.1%
C/C(Cl)=C/Cn1c(=O)c2c(nc(Br)n2Cc2ccccc2)n(C)c1=O	0.35	i	1.4%
CC(=O)Cc1nsc(NC(=O)c2ccc(-c3cc(C(F)(F)F)ccc3Cl)o2)n1	-1.7	i	-8.8%
O=C(NCc1ccccc1)c1cc(-n2cnnc2)ccc1Cl	0.11	i	-1.3%
Cc1ccc(C(=O)N2CC(C)OC(C)C2)c(Cl)c1 (stereo unspecified)	nt	i	2.2%
O=C(NCc1ccccc1Cl)C1CCN(S(=O)(=O)N2CCCCC2)CC1	-0.51	i	-1.5%
Cc1cc2ccccc2c(=O)n1CC(=O)NCC(=O)N1CCN(c2cccc(Cl)c2)CC1	-0.24	i	-0.1%

Screening results as filed in PubChem.
